Menin MLL FP FL = displaces fluorescein MLL peptide from human menin; Fluorescence polarization, fluorescein-MLL peptide displacement from menin; FP activity change, % at 61.4 µM; 290,000 tested, under 10 active; inconclusive = falling polarisation curve, or a change in total fluorescence; inactive = total fluorescence flat and polarisation flat or rising; no compound was filed as active; the % refers to the polarisation; negative = inhibition;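 further: % of control where 0% means no effect; inhibitors lower the polarisation; unlabelled MLL peptide was the positive control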
Sfp PPTase inh = blocks B. subtilis Sfp PPTase activity | Potency, µM, inactives show max response, negative = inhibition, hits mostly inhibitors | Q9F4F7 | Biochemical Sfp PPTase activity, qHTS | 3.5% of 310,000 active | AID 1490; active means well fitted inhibition curve with a large enough effect; inconclusive means small, poorly fitted or top-dose-only effect, or another doubt; inactive means no such curve, though single readings can be large or run the other way;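 further: the enzyme is Sfp with the accession as filed and its product quenches rhodamine fluorescence; potency means the concentration at half of the fitted maximal effect; 0% = enzyme reaction without inhibitor and -100% = no enzyme wells; top concentration of the series not given in the record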
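Buffer: 50 mM Hepes-Na pH 7.6, 10 mM MgCl2, 0.01% Nonidet P-40, 0.01% BSA. Enzyme 15 nM, pre-exposed to compound 15 min; substrates then added and fluorescence change tracked over 30 min.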
Numbers without * were called inactive; ? = inconclusive; & = joins results of further samples; ! = not active in a repeat; [ ] = another dose, or the depositor's remark. This is a subset, so the mix of outcomes need not match the whole.

Structure,Menin MLL FP FL,Sfp PPTase inh
COCCn1c(=O)c(-c2cn(C)c3ccccc23)nc2cnc(Oc3ccc(OC)cc3)nc21,-25,-1%
COc1ccccc1CCn1c(=O)c(C)nc2cncnc21,5.2,12%
NC(C(=O)O)[C@@H]1CC(Cl)=NO1 (stereo partly drawn),-0.5,-19%
COc1ccccc1CN1CC[C@@]2(CCCN(C(=O)c3c(C)noc3C)C2)C1,0.7,-1%
COc1cccc(Cn2c(=O)c(-c3ccc(F)cc3)nc3cnc(N4CCNCC4)nc32)c1,-1.4,?
CO[C@@H]1COC(=O)C/C=C\[C@@H](C)[C@@H]2C=C[C@H](O)[C@@H](COC(=O)CCC[C@H]1C)O2,-1.7[11.7 µM],-2%
COc1ccc(Oc2ncc3ncc(=O)n(-c4ccc(OC)cc4)c3n2)cc1,-1.1,1%
C=CC[C@@H]1C=C[C@H](O/N=C(\C)CCN2CCc3nc(CC)c(CC)cc3C2)[C@H](CO)O1,0.0[11.7 µM],-11%

The listing continues:
Structure,Menin MLL FP FL,Sfp PPTase inh
CC1CCC(C(C)C)C(O)C1 (stereo not drawn),-0.7,14%
O=c1c(-c2cc(F)cc(F)c2)nc2cncnc2n1C1CC1,-4.9,20%
CCCCNc1nc(C)nc2c1nc(-c1ccccc1)n2CC1CCCN1CC (stereo not drawn),2.3,16%
CC(=O)OC[C@H]1O[C@@H](CCO/N=C2/[C@H]3O[C@@H]3[C@@H](O)[C@H]3[C@H]2CCn2c(=O)n(-c4ccccc4)c(=O)n23)C=C[C@@H]1OC(C)=O,2.1[11.7 µM],-2%
Oc1cc(O)c2c(c1)OC(c1cc(O)c(O)c(O)c1)C(O)C2 (stereo not drawn),5.6,-77%
COc1ccccc1-c1ccc2ncnc(N(C)C)c2c1,3.7,-3%
CCOC(=O)c1c(C)n(C)c2ccc(O)cc12,-1.9,-3%
COc1ccc(C(=O)N2CCC3(CCCN(c4ccccn4)C3)CC2)cc1,0.8,-7%

(next part)
Structure,Menin MLL FP FL,Sfp PPTase inh
CC(C)NC(=O)N1CCC2(CC1)CCN(S(=O)(=O)c1ccccc1)CC2,0.8,19%
CN1CCN(c2ncc3nc(-c4cn(C)c5ccccc45)c(=O)n(-c4ccccc4)c3n2)CC1,?,7%
COC(=O)C1=C(C(=O)OC)[C@@H]2N(C)c3ccc(OC)cc3[C@@]23C[C@@H](C(=O)OC)N(S(=O)(=O)c2c(C)noc2C)C3=N1,-2.5[11.7 µM],9%
CC[C@@H](C)[C@H]1O[C@]2(CC[C@@H]1C)C[C@@H]1C[C@H](C/C=C(/C)[C@H](O[C@@H]3C[C@H](OC)[C@H](O[C@@H]4C[C@H](OC)[C@@H](O)[C@H](C)O4)[C@H](C)O3)[C@@H](C)/C=C\C=C3CO[C@@H]4[C@H](O)C(C)=C[C@@H](C(=O)O1)[C@]34O)O2 (tested in a mixture with another compound),2.6,-7%
C#CCCCCCCCCCCCC(O)CC(O)CO (stereo not drawn),-0.7,12%
C[C@@](N)(C(=O)O)c1ccc(S(=O)(=O)O)cc1,?,?
CCN(CC)CCNC(=O)c1ccc(NC(=O)c2ccc(Cl)c(S(=O)(=O)Nc3ccccc3OC)c2)cc1,-1.1,-9%
CC1CCC2C(=O)N3C(CCC(C)[C@@H]3c3cccc(N4CCOCC4)c3)C(=O)N2C1c1cccc(N2CCOCC2)c1 (stereo partly drawn),0.9[11.7 µM],12%

Next results:
Structure,Menin MLL FP FL,Sfp PPTase inh
C=CCNC1=C2C[C@@H](C)C[C@H](OC)[C@H](O)[C@@H](C)/C=C(\C)[C@H](OC(N)=O)[C@@H](OC)/C=C\C=C(/C)C(=O)NC(=CC1=O)C2=O,2.2,-5%&-5%
COCCNc1nc(-c2c(C)noc2C)nc2ccccc12,-0.2,1%
COc1ccccc1CN1CC[C@@]2(CCCN(C(=O)c3cnccn3)C2)C1,-5.3,20%
O=C(/C=C/c1ccccc1)c1ccc(O)cc1,-1.4,-14%
CCC[C@H](NC(C)=O)C(=O)N[C@H]1CC(=O)ONCCCC[C@@H](C(N)=O)NC(=O)[C@H](Cc2c[nH]c3ccccc23)NC(=O)[C@H](CCCN=C(N)N)NC(=O)[C@@H](Cc2ccc3ccccc3c2)NC(=O)[C@H](Cc2cnc[nH]2)NC1=O,0.5,13%
N#CCCn1c(=O)c(-c2ccc(F)cc2)nc2cnc(N3CCOCC3)nc21,?,17%
CC[C@H](C)[C@H]1O[C@]2(CC[C@@H]1C)C[C@@H]1C[C@@H](C/C=C(\C)[C@H](O[C@@H]3C[C@H](OC)[C@H](O[C@@H]4C[C@H](OC)[C@@H](O)[C@H](C)O4)[C@H](C)O3)[C@@H](C)/C=C/C=C3\CO[C@@H]4[C@H](O)C(C)=C[C@@H](C(=O)O1)[C@]34O)O2,3.3,8%
C=C(CC1([C@@H](NP(=O)(c2ccccc2)c2ccccc2)[C@H]2C[C@@H]2CCCC)CC1)c1cccc(OC)c1,5.1,0%

The listing continues:
SMILES,Menin MLL FP FL,Sfp PPTase inh
O=C(c1cccc(F)c1)N1CCC2(CC1)CN(C(c1ccccc1)c1ccccc1)C2,-2.0,-18%
FC(F)(F)c1ccccc1-c1nc(NCc2cccnc2)c2ccccc2n1,2.3,-9%
COc1cccc(-c2cncnc2N(C)Cc2ccco2)c1,-3.6,?
O=C(O)c1cc(C(=O)O)c(C(=O)N(Cc2cccc(Oc3ccccc3)c2)[C@H]2CCCc3ccccc32)cc1C(=O)O,-0.6,14%
CCNc1ncc2nc(-c3cn(C)c4ccccc34)c(=O)n(Cc3cccs3)c2n1,?,4%
O=C(O)c1ccc2c(c1)C(=O)N([C@@H](C(=O)O)C(c1ccccc1)c1ccccc1)C2=O,-2.9,15%
CSCC[C@H](NC(=O)[C@H](CC(C)C)NC(=O)[C@@H]1CCCN1C(=O)[C@H](Cc1ccccc1)NC(=O)[C@H](Cc1ccccc1)NC(=O)[C@H](CCC(N)=O)NC(=O)[C@H](CCC(N)=O)NC(=O)[C@@H]1CCCN1C(=O)[C@H](CCCCN)NC(=O)[C@@H]1CCCN1C(=O)[C@@H](N)CCCN=C(N)N)C(N)=O,2.1,1%
COC(=O)C(C(C)=O)C(NC(=O)OC(C)(C)C)c1ccccc1 (stereo not drawn),-2.5,10%
CNc1cc(-c2ccccc2CN(C)C)ncn1,1.6,17%
C=C[C@H]1CCC=C2C(=O)CCC[C@@H]21,-2.5,-5%
CCC1=C(OC(=O)N(CC)CC)N2C(=O)OC(=NCCOC)[C@]2(C)[C@H]2C1=CC[C@H]1C(=O)NC(=O)[C@H]12,0.1,32%[activator]
COC(=O)[C@@]1(Cc2ccc(F)cc2)[C@H]2c3cc(C(=O)N(C)C)n(Cc4cc(F)c(F)c(F)c4)c3C[C@H]2CN1C(=O)c1ccccc1,-2.7,2%
Cn1cc(-c2nc3cnc(N4CCNCC4)nc3n(-c3ccccc3)c2=O)c2ccccc21,?,-22%
C=C1C2CC[C@]3(CCC4[C@@]5(C)CCC[C@@]4(CN(CCO)C5)[C@@H]3C2)[C@@H]1O (stereo partly drawn),4.0,15%
COc1cccc([C@@H]2Oc3ccc(OC)cc3C[C@H]2OC(=O)Nc2ccc(OC(F)F)cc2)c1,1.5,0%
CCOC(=O)OCC1C=C[C@H](c2cc(-c3ccccc3)ccc2O)C(c2ccc(C(C)=O)cc2)O1 (stereo partly drawn),0.0[11.7 µM],13%
OC1C2COC(O2)[C@H](O)C1O (stereo partly drawn),-0.6,13%
COc1ncc2nc(-c3cn(C)c4ccccc34)c(=O)n(CCC#N)c2n1,?,26%
Nc1nc(-c2ccc(Cl)c(Cl)c2)c(-c2ccncc2)s1,-4.7,22µM*
CCN(CC)CCC(=O)N1c2ccccc2Sc2ccc(C(F)(F)F)cc21,-3.0,2%

Three structures already listed, ordered by heavy-atom count, falling:
SMILES,Menin MLL FP FL,Sfp PPTase inh
CSCC[C@H](NC(=O)[C@H](CC(C)C)NC(=O)[C@@H]1CCCN1C(=O)[C@H](Cc1ccccc1)NC(=O)[C@H](Cc1ccccc1)NC(=O)[C@H](CCC(N)=O)NC(=O)[C@H](CCC(N)=O)NC(=O)[C@@H]1CCCN1C(=O)[C@H](CCCCN)NC(=O)[C@@H]1CCCN1C(=O)[C@@H](N)CCCN=C(N)N)C(N)=O,2.1,1%
CNc1cc(-c2ccccc2CN(C)C)ncn1,1.6,17%
C=C[C@H]1CCC=C2C(=O)CCC[C@@H]21,-2.5,-5%

New compounds follow.
SMILES,Menin MLL FP FL,Sfp PPTase inh
CN(Cc1ccco1)c1nc(-c2ccc3c(c2)OCO3)nc2ccccc12,-3.1,?
COc1ccccc1-c1nccc(NCc2cccc(C)c2)n1,11,-3%
N#CCCn1c(=O)c(-c2ccccc2)nc2cnc(Nc3ccccc3)nc21,?,9%
Cn1c(=O)c(-c2ccc(F)cc2)nc2cnc(Oc3ccccc3)nc21,-1.2,6%
NCc1ccccc1CC(=O)N[C@@H]1C(=O)N2C(C(=O)O)=C(CSc3nnnn3CC(=O)O)CS[C@@H]12,?,?
CC[N+](CC)(CCNC(=O)C(=O)NCC[N+](CC)(CC)Cc1ccccc1Cl)Cc1ccccc1Cl,0.4&-2.1,2%&6%
CCC/C=C(\CCC)C(NC(=O)Oc1ccc(F)cc1)c1ccc(C(=O)OC)cc1 (stereo not drawn),-6.5,14%
CO[C@H]1COC(=O)[C@H]2CCCN2C(=O)C/C=C\[C@@H](C)[C@H](OC)COC(=O)[C@@H](OCc2ccccc2)/C=C\[C@@H]1C,-1.4[11.7 µM],4%
Cc1cnc(CNc2ncnc3ccc(-c4ccccc4CN(C)C)cc23)cn1,5.2,-8%
Nc1nc(NCCc2ccc(O)cc2)nc2nc(-c3ccco3)nn12,1.1,?
CCOC(=O)[C@H](CCc1ccccc1)N[C@@H](C)C(=O)N1[C@H](C(=O)O)C[C@H]2CCC[C@@H]21,?,18%
COC(=O)[C@@]1(Cc2ccccc2)[C@H]2c3cc(C(=O)N4CCCC4)n(Cc4ccc(S(C)(=O)=O)cc4)c3C[C@H]2CN1C(=O)c1ccccc1,-0.2,6%
O=C1C=C[C@@H](O)[C@H]2[C@@H]3C(=O)N(Cc4ccccc4)C(=O)[C@@H]3CC[C@H]12,0.4[11.7 µM],-8%
O=C(c1cnccn1)N1CCC[C@@]2(CCN(Cc3ccncc3)C2)C1,-4.8,8%
O=c1c(-c2ccc(Cl)cc2)nc2cncnc2n1Cc1ccccc1Cl,5.8,6%
C=C(C)C1COc2cc3oc(=O)ccc3cc2O1 (stereo not drawn),-1.0,11%
Fc1ccc(Nc2ccnc(-c3ccccc3C(F)(F)F)n2)cc1,-1.6,7%
CO[C@H]1COC(=O)[C@@H](Cc2ccccc2)NC(=O)[C@@H](C)COC(=O)C/C=C\[C@@H]1C,1.1[11.7 µM],22%
COCCn1c(=O)c(-c2ccc(F)cc2)nc2cnc(Oc3ccccc3)nc21,2.5,25%
CCN1C(C)=C(C(=O)OC)C(c2ccccc2)N2C(=O)[C@](O)(C(=O)OC)CC(C(C)=O)=C12 (stereo partly drawn),-1.7[11.7 µM],15%

Three compounds already listed, ordered by their value in Menin MLL FP FL, descending:
SMILES,Menin MLL FP FL,Sfp PPTase inh
NC(C(=O)O)[C@@H]1CC(Cl)=NO1 (stereo partly drawn),-0.5,-19%
CCN(CC)CCNC(=O)c1ccc(NC(=O)c2ccc(Cl)c(S(=O)(=O)Nc3ccccc3OC)c2)cc1,-1.1,-9%
O=C(O)c1ccc2c(c1)C(=O)N([C@@H](C(=O)O)C(c1ccccc1)c1ccccc1)C2=O,-2.9,15%

(continued)
SMILES,Menin MLL FP FL,Sfp PPTase inh
COC(=O)C1=C(C)N(Cc2ccccc2)C2=C(C(=O)c3ccccc3)C(c3ccccc3)[C@@](O)(C(=O)OC)C(=O)N2C1c1ccccc1 (stereo partly drawn),-0.2&-4.3[11.7 µM],-1%&-1%
NCC1O[C@H](O[C@@H]2C(O)[C@H](O[C@H]3OC(CO)C(O)C(N)C3O)[C@@H](N)C[C@H]2N)[C@@H](N)CC1O (stereo partly drawn),0.0,5%
Cc1cccc(CNc2ccnc(-c3cccc(C#N)c3)n2)c1,-6.4,-4%
C=CCN1c2ccccc2[C@]23C[C@@H](C(=O)OC)N(S(=O)(=O)c4ccc(Br)cc4)C2=NC(C(=O)OC)=C(C(=O)OC)[C@H]13,-0.8[11.7 µM],-1%
Cn1cccc1C(=O)N1CCC2(CC1)CN(c1cccc(-c3ccccc3)c1)C2,-5.2,-2%
N[C@H](C(=O)O)c1cc(O)cc(O)c1,?,45µM*!
c1cc(-c2cnn3cc(-c4ccc(OCCN5CCCCC5)cc4)cnc23)ccn1,-0.5,-3%
CN(C)c1ncc2nc(-c3ccc(F)cc3)c(=O)n(Cc3cccs3)c2n1,-1.4,11%
COC/C=C/C1=CC2=CC(=O)C(C)(OC(=O)c3cnc4ccccc4n3)C(=O)C2=CN1C1CCCC1 (stereo not drawn),-3.9[11.7 µM],8%
CCN(CC)CCCCn1c(-c2ccccc2)nc2c(Nc3ccccc3)nc(C)nc21,-2.0,8%
CS(=O)(=O)c1ccc(-c2cc(Br)sc2-c2ccc(F)cc2)cc1,3.2,-8%
C=CC(C)(O)CC1[C@@]2(C)CCCC(C)(C)C2CC[C@]1(C)O (stereo partly drawn),0.7,18%
COC(=O)[C@@H](NC(=O)N1CCc2nc(COc3ccccc3)c3c(c2C1)CO[C@@H](C)C3)C(C)C,-3.2[11.7 µM],7%
CCc1c2c(nc3c(C(C)C)cccc13)-c1cccc(=O)n1C2,9.2,50µM*
COc1cc(OC)c2c(c1Cl)OC1(C2=O)C(O)=CC(=O)CC1C (stereo not drawn),-1.7,-5%
